VDR inhibitor = vitamin D3 receptor (human) inhibition; P11473; VDR-SRC2-3 peptide fluorescence polarization, 2 h; Potency, µM, for the others: max response, negative = inhibition, hits mostly inhibitors; 400,000 tested, 0.93% active; AID 504847; active = well fitted inhibition curve with a large enough effect; inconclusive = small, poorly fitted or top-dose-only effect, or another doubt; inactive = no such curve, though single readings can be large or run the other way; also: series mostly up to about 120 µM
Target sequence (P11473 whole entry, looked up): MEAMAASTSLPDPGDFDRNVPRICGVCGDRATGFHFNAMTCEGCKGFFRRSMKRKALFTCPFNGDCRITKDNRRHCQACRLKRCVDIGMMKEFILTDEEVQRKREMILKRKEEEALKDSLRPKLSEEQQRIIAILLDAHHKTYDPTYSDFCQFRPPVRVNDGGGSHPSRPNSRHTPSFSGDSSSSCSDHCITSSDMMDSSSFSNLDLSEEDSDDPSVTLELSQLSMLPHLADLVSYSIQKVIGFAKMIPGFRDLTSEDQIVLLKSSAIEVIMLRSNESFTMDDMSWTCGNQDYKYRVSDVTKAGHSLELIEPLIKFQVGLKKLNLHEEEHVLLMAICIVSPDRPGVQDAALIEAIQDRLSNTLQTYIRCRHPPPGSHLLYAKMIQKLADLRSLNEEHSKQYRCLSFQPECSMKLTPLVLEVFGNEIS
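Two reagent solutions held at 4 deg C in the dark were dispensed, compounds pinned at 23 nl, and the mixture incubated 2 h at room temperature. Read-out: fluorescence polarization of VDR–SRC2-3 peptide binding.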
* hit, by the source's call; ? = inconclusive; & = joins results of further samples; [ ] = another dose, or the depositor's remark. % is scaled to controls: 0 for no effect and ±100 for the full control effect; potency is read from the fitted curve at half-maximal effect. An excerpt; count on the stated rates, not on these rows.

VDR inhibitor,molecule
-2.1%,CCOc1ccc(CCN2C(=S)N([C@@H](CC(C)C)CN3CCCC3CN3C(=S)NC[C@@H]3CC(C)C)C[C@@H]2Cc2ccc(O)cc2)cc1 (some centres not stated)
-0.1%,CCCOc1cccc(C(=O)Nc2cccc(NC(=O)c3ccco3)c2)c1
18.9%,Cc1cc(S(=O)(=O)Nc2noc3ccccc23)ccc1F
-20.3%,O=C(CC1C(=O)NCCN1C(=O)c1ccccc1)Nc1cc(Cl)ccc1Cl (configuration not stated)
-27.0%,CC(C)C[C@@H](CNCC(=O)[C@H](Cc1c[nH]c2ccccc12)NC(=O)c1[nH]cnc1C(=O)N[C@@H](C)CN)NC(=O)c1nc[nH]c1C(=O)N[C@@H](Cc1ccccc1)C(=O)O
21.6%,Cn1c(=O)c2c(nc(N/N=C/c3cccnc3)n2Cc2ccccc2)n(C)c1=O
-9.5%,Cc1cc(C(=O)OC(C)C(=O)N2CCc3ccccc32)ccc1[N+](=O)[O-] (configuration not stated)
12.2%,Cc1cc(C(=O)CN2C(=O)NC3(CCCCC3)C2=O)c(C)n1Cc1ccc2c(c1)OCO2
-6.2%,COC(=O)C(Cc1c[nH]c2ccccc12)NC(C)=O (configuration not stated)
12.6%,COc1ccc(OCC(O)CN2C(=O)NC(C)(C)C2=O)cc1 (configuration not stated)
-18.0%,COc1cc(C(=O)NC(c2ccccc2)c2ccccc2)cc(OC)c1OC
-11.1%,CCc1cccc(CC)c1NC(=O)c1cc(S(=O)(=O)N2CCc3ccccc32)cn1C
9.5%,Cc1ccccc1-c1noc(-c2cc(-c3ccc(F)cc3)n[nH]2)n1
-0.9%,CCOc1cc(C(=O)N2CC(=O)Nc3ccc(F)cc3C2c2ccccc2)cc(OCC)c1OCC (configuration not stated)
-18.5%,Cc1ccnc(Nc2nc(-c3c(C)nc4sccn34)cs2)c1
0.3%,O=C(COC(=O)/C=C/c1ccccc1)NC(=O)NCc1ccccc1
-7.1%,CCNc1ncc2nc(-c3ccc(Cl)cc3)c(=O)n(CCC#N)c2n1
-18.6%,OCCCn1c(C2CCCN2c2nc(-c3ccc(F)cc3)cs2)nc2cc(Cl)c(N3CCCCC3)cc21 (configuration not stated)
15.3%,O=C(Oc1cc(=O)oc2c1c(=O)n1c3c(cccc23)CC1)c1ccc(F)cc1
-2.8%,CCOc1ccccc1N(C)C(=O)Cn1ncc2c([nH]c3ccccc32)c1=O

Four of the compounds above, with each value named:
CCOc1ccc(CCN2C(=S)N([C@@H](CC(C)C)CN3CCCC3CN3C(=S)NC[C@@H]3CC(C)C)C[C@@H]2Cc2ccc(O)cc2)cc1 (some centres not stated)
  VDR inhibitor = -2.1%

CCCOc1cccc(C(=O)Nc2cccc(NC(=O)c3ccco3)c2)c1
  VDR inhibitor = -0.1%

Cc1cc(S(=O)(=O)Nc2noc3ccccc23)ccc1F
  VDR inhibitor = 18.9%

O=C(CC1C(=O)NCCN1C(=O)c1ccccc1)Nc1cc(Cl)ccc1Cl (configuration not stated)
  VDR inhibitor = -20.3%

(list continues)
VDR inhibitor,molecule
0.7%&14.5%,Cc1cccc(N2CCN(S(=O)(=O)c3c(C)[nH]c(=O)[nH]c3=O)CC2)c1C
-8.2%,Cc1cccc(NC(=O)c2c(NC(=O)c3ccccc3)sc3c2CCC3)c1
11.8%,Cn1ccnc1C(=O)c1ccc(NN)c([N+](=O)[O-])c1
-3.0%&13.5%,Cc1nn(CC(=O)N2CCN(c3ccc(Cl)cc3)CC2)c(=O)c2cccn12
0.6%,Cc1ccc(C)c(N2CCN(CCCNc3ncnc4onc(-c5ccc(Cl)cc5)c34)CC2)c1
-15.8%,O=C(COc1ccc(/C=N/NC(=O)c2cccnc2)cc1)Nc1ccccc1
-22.0%,CCOC(=O)N1CCC(=NNc2ccc(S(=O)(=O)N3CCOCC3)cc2[N+](=O)[O-])CC1
-11.9%,C[C@@H](C(=O)NCc1ccc(S(C)(=O)=O)cc1)[C@@H]1C[C@@]1(C)[C@@H](NC(=O)OCc1ccccc1)c1ccccc1
17.3%,CC(C)(C)C(=O)N(Cc1ccccc1)c1ccccn1
4.0%,Cc1cc(C(=O)CSc2n[nH]c(-c3ccccc3F)n2)c(C)n1Cc1cccs1
-13.4%,O=C(N/N=C/c1cccnc1)c1cc(C2CC2)nc2ccccc12
1.1%,O=C(CCCCn1ccc(=O)[nH]c1=O)Nc1ccc(O)c(C(=O)O)c1
-13.1%,C=CCn1c(SCC(=O)Nc2c(C)cccc2C)nnc1-c1cnccn1
-1.7%,CCCNC(=O)COC(=O)c1ccc(S(=O)(=O)N2CCCCCC2)cc1
-4.1%,O=C(COc1ccc(F)cc1)N1CCCCCCC1
2.2%,COc1ccccc1-n1nnnc1SCC(=O)NCC1CCCO1 (configuration not stated)
-3.4%,COc1ccc(C(=O)NCC(=O)OCC(=O)NCCC2=CCCCC2)cc1
-6.2%,CCC(C)NC(=O)C1CCCN(S(=O)(=O)c2ccc3c(c2)CC(C)N3C(C)=O)C1 (configuration not stated)
1.0%,NC(=O)C1CCCN(C(=O)CCc2nnc(C3(c4ccc(Cl)cc4)CCC3)o2)C1 (configuration not stated)
7.8%,CCc1cc(C(=O)Nc2cc(Cl)ccc2N2CCN(C)CC2)sc1C
-20.2%,Cc1cccc(N2CCN(C(=O)c3cc4c(=O)n(C)c5ccccc5c4n3C)CC2C)c1 (configuration not stated)
-10.4%,Cc1cc(C)n(C(=O)CNC(=O)c2ccco2)n1
-2.3%,CC(=O)c1ccc(-c2ccc([C@H]3[C@H]4C=CC[C@@H](C)[C@@H]4C(=O)N3Cc3ccccc3)c(F)c2)cc1
16.6%,O=c1oc2cc(OCc3ccc(C(F)(F)F)cc3)ccc2cc1-c1ccccn1
?,COc1cccc(CN(C)C(=O)c2[nH]c(C)c(C(C)=O)c2C)c1OC
4.3%,O[C@H]1COC2C1OC[C@@H]2O (some centres not stated)
3.3%,O=C(CNC(=O)c1cccc(F)c1)N/N=C/c1ccc(O)c([N+](=O)[O-])c1
-9.2%,COc1cccc(-n2c(Cc3cc(=O)[nH]c(=O)[nH]3)nnc2SCc2cccc(C(F)(F)F)c2)c1
-4.7%,Cc1c(/C=C2\SC(=Nc3cccc(C(=O)O)c3)NC2=O)c2ccccc2n1C
1.3%,COc1ccc2cc(CNc3ccccc3)c(=O)n(CC(=O)Nc3ccc(C)cc3C)c2c1
1.9%,CCO[C@H]1OC(C(=O)N2CCN(Cc3ccc4c(c3)OCO4)CC2)=C[C@@H](c2ccc3c(c2)OCO3)[C@@H]1CCCO
5.4%,COCCCNc1nc(N)c([N+](=O)[O-])c(NCc2ccccc2)n1
-21.5%,CC(=O)C[C@H](O)CC(=O)[C@H]1OC(=O)[C@@H](C)CCCCc2ccccc21
-23.9%,COc1ccccc1NS(=O)(=O)c1cc(N/C(=N\S(=O)(=O)c2ccccc2)c2ccc(F)cc2)ccc1Cl
-1.6%,Cc1nn(CCC(=O)N2CCN(S(=O)(=O)c3ccccc3)CC2)c(C)c1C
-3.6%,CCOc1ccc(Oc2ccc(NS(=O)(=O)c3cc(C(=O)O)ccc3Cl)cc2)cc1
?,O=C(O)CN1C(=O)/C(=C\c2cc([N+](=O)[O-])ccc2OCc2ccccc2Cl)SC1=S
-13.0%,Cc1cc2ccccc2n1CCNC(=O)c1cc(C(F)(F)F)cc(C(F)(F)F)c1
6.2%,Cc1cc2c(C)cc(=O)oc2c2c1NCCC2
16.3%,CC(=O)c1ccc(N2CCN(CC(=O)Nc3ccccc3N3CCOCC3)CC2)cc1
-11.6%,CC(=O)c1ccc(S(=O)(=O)N(C)CC(=O)Nc2cc(C)on2)cc1
11.4%,CCN(CC)c1cc(C)c2ccccc2n1
-18.7%,Cn1ncc(Br)c1C(=O)Nc1cccc(C(F)(F)F)c1
14.6%,CCCc1nnc(NC(=O)c2oc3ccccc3c2COCC)s1
-16.4%&4.4%,Nc1ncnc2c1nc(Br)n2C1CC(O)C(CO)O1 (configuration not stated)
-11.3%,O=C(COC(=O)CSc1cccc2cccc(Cl)c12)Nc1ncc(C(F)(F)F)cc1Cl
4.2%,COc1ccc(NC(=O)c2c(C)oc3c2CCCC3)cc1
?,Cc1cccc(CSCCNC(=O)c2ccc(CN3CCOCC3)cc2)c1
18.0%,Cc1ccc(C(CNS(=O)(=O)c2ccc(Cl)cc2)N2CCN(C)CC2)cc1 (configuration not stated)
-2.1%,Cc1ccccc1OCCSc1nc2ccc(NC(=O)c3ccccc3)cc2s1
2.2%,CC1Cc2ccccc2N1C(=O)CSc1nnc2c(n1)[nH]c1ccccc12 (configuration not stated)
19.2%,Cc1ccc(Nc2c(-c3ccccn3)nc3ccc(Br)cn23)cc1
-4.9%,COc1ccc(C(=O)NC(=S)NNC(=O)[C@H]2C[C@@H]2c2ccccc2)cc1OC
-17.2%,COc1ccc(-c2oc(=O)n(C)c2-c2ccc(OC)cc2)cc1
3.7%,CCN(CCNC(=O)Cn1c(=O)sc2ccccc21)c1ccccc1
3.3%,CCN(CC(=O)Nc1ccc(OC)cc1)CC(=O)Nc1ccc(Cl)cc1F
-10.1%,CCOc1ccc(N2C(=O)Nc3ccccc3C2(O)C(=O)NCc2ccc(OC)cc2)cc1 (configuration not stated)
-17.8%,O=C(c1ccc(F)cc1)N1CCN(Cc2ccccc2)CC1
37.6%&-13.0%[activator],COc1ccc(CNC(=O)CN(c2cc(C)cc(C)c2)S(=O)(=O)c2c(C)[nH]c(=O)[nH]c2=O)cc1
-0.3%,Cc1cccc(N(CC(=O)NC2CCCC2)C(=O)CS(=O)CC(=O)Nc2ccc3c(c2)OCO3)c1C (configuration not stated)

Continued.
VDR inhibitor,molecule
-8.8%,Cc1ccc(OCC(=O)Nc2sc3c(c2C#N)CCC3)cc1C
9.4%,CC(C)(C)c1ccc(C(=O)NC(=O)COC(=O)c2ccco2)cc1
-7.7%,Cc1nonc1NC(=O)c1ccccc1Br
-9.7%,COc1cccc(CN2CCN(Cc3nc(-c4cccs4)oc3C)CC2CCO)c1 (configuration not stated)
-11.9%,O=[N+]([O-])c1cc(Cl)ccc1Nc1nc(Nc2ccc(Cl)cc2[N+](=O)[O-])nc(N2CCOCC2)n1
-13.7%,COc1ccc(/C=C/C(=O)OCC(=O)NCc2ccco2)cc1OC
-12.2%,CC1CCCCC1NC(=O)COC(=O)COc1ccccc1Cl (configuration not stated)
3.0%,Cc1ccc(N(C(=O)c2csnn2)C(C(=O)NC2CCCCC2)c2ccncc2)c(C)c1 (configuration not stated)
?,O=C1OC(/C=C/c2ccccc2)=NC/1=C/c1ccco1
10.4%,COc1ccc(NC(=S)N2CCN(c3ccccc3)CC2)c(OC)c1
-0.1%,COc1ccccc1C(=O)Nc1ccc(C2=NNC(=O)CC2C)cc1 (configuration not stated)
25.1µM*,COc1cccc(NC(=O)c2sc3ncn(CC(=O)N4CCN(c5ccccn5)CC4)c(=O)c3c2C)c1
0.8%,COc1cc2cc(CN(Cc3cccnc3)C(=O)NCc3ccccc3)c(=O)[nH]c2cc1OC
79.4µM*,Cn1c(Cl)cnc1C1CC(=O)c2cc(Cl)ccc2O1 (configuration not stated)
-14.6%,Oc1[nH]c2ccccc2c1N=Nc1c(F)c(F)c(Cl)c(F)c1F
-24.1%,CC1=NN(C(=O)c2ccc(Cn3cc([N+](=O)[O-])cn3)cc2)C(O)(C(F)(F)F)C1 (configuration not stated)
-1.2%,COc1ccc(CCNC(=O)c2ccc(OCc3c(C)noc3C)c(OC)c2)cc1
0.3%,O=C(/C=C/c1cccc(Br)c1)NC1CCN(Cc2ccccc2)CC1
1.0%,COc1cc2c(cc1OC)CN(C(=S)Nc1ccc(C)cc1C)CC2
-10.7%,O=C(COC(=O)CCC(=O)c1cccs1)Nc1ccccc1C(F)(F)F
5.3%,CCC(C)[C@H]1COCCS(=O)(=O)N1Cc1ccc(Cl)cc1Cl (some centres not stated)
-1.5%,O=C(Oc1ccc(Br)cc1)C1CCN(C2=NS(=O)(=O)c3ccccc32)CC1
-20.1%,O=C(CCCn1cncn1)N1CCCC(Nc2ccc(F)cc2)C1 (configuration not stated)
-1.8%,O=C(c1ccco1)N1CCN(S(=O)(=O)Cc2ccc(Cl)cc2)CC1
-20.2%,COc1ccc(N2CCN(C(CNC(=O)COc3ccccc3)c3ccco3)CC2)cc1 (configuration not stated)
-8.4%,Cc1ccc(OCC(=O)NNC(=O)c2cc(C)[nH]n2)cc1
-12.3%,CC(C)CC(=O)NC(=S)Nc1cccc(NC(=O)c2ccccc2)c1
-16.9%,O=C(N/C(=C/c1cccc(Br)c1)c1nc(=S)[nH][nH]1)c1ccccc1
-14.7%,COc1cc2c(cc1NC(=O)CSc1nc3ccccc3[nH]1)oc1ccccc12
-9.1%,Cc1nc2ccc(NC(=O)c3ccc4ccccc4n3)cc2s1
-1.3%,O=C(CC1SC(N2CCOCC2)=NC1=O)Nc1ccc(Cl)c(C(F)(F)F)c1 (configuration not stated)
-9.4%,C/C(CC(=O)Nc1ccc([N+](=O)[O-])cc1)=N/NC(=O)C1C2CCCCC21 (configuration not stated)
21.1%,CC(=O)c1cccc(NC(=O)c2ccc(N(C)S(=O)(=O)c3ccc(C)cc3)cc2)c1
1.8%,CC(C)(C)c1ccc(Cn2nc(CC(=O)O)c3ccccc3c2=O)cc1
-11.3%,O=C(Cc1ccc(Br)cc1)OCC(=O)N1CCc2ccccc2C1
-7.9%,CN1CCN(S(=O)(=O)c2cccc(C(=O)Nc3ccc(Br)cc3Br)c2)CC1

Three compounds picked at random from the list so far:
VDR inhibitor,molecule
-20.2%,COc1ccc(N2CCN(C(CNC(=O)COc3ccccc3)c3ccco3)CC2)cc1 (configuration not stated)
5.3%,CCC(C)[C@H]1COCCS(=O)(=O)N1Cc1ccc(Cl)cc1Cl (some centres not stated)
-12.3%,CC(C)CC(=O)NC(=S)Nc1cccc(NC(=O)c2ccccc2)c1

Screens (PubChem)
